Screening results deposited in PubChem by National Center for Advancing Translational Sciences (NCATS).
PINK1 modulator – modulators of PINK1 expression. PINK1 immunofluorescence, high-content cytometry, 24 h. Potency, µM (highest dose often 76.6 µM), for inactives: top-dose activation (PINK1 increase), most hits filed as activators. 0.2% of 410,000 active. AID 624263; active = well fitted activation curve with a large enough effect; inconclusive = small, poorly fitted or top-dose-only effect; inactive = flat fitted curve, though single readings scatter; cell line not stated here;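 note: potency is the fitted concentration of half-maximal effect; % of control where 0% means no effect; nearly all actives have a fitted effect of over 65% in size; a mitochondrial uncoupler was the plate control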
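Stable cell line, 250 cells/well, 12 h attachment; compounds pinned at 5 concentrations, 24 h; CCCP control. Fixed with nuclear dye, primary antibodies 12 h at 10 degrees C, secondary plus cell stain; laser-scanning cytometer read.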
Menin-MLL FL inh – menin-MLL binding inhibition, fluorescein peptide. Fluorescence polarization, fluorescein-MLL peptide displacement from menin. FP activity change, % at 61.4 µM. 290,000 tested, under 10 active. AID 1766; inconclusive = falling polarisation curve, or a change in total fluorescence; inactive = total fluorescence flat and polarisation flat or rising; no compound was filed as active; the % refers to the polarisation; negative = inhibition;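 note: % of control where 0% means no effect; inhibitors lower the polarisation; unlabelled MLL peptide was the positive control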
Sfp PPTase inh – blocks B. subtilis Sfp PPTase activity. Biochemical Sfp PPTase activity, qHTS. Potency, µM, inactives show max response, negative = inhibition, usual class: inhibitors. 3.5% of 310,000 active. Q9F4F7; active = well fitted inhibition curve with a large enough effect; inconclusive = small, poorly fitted or top-dose-only effect, or another doubt; inactive = no such curve, though single readings can be large or run the other way;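 note: the enzyme is Sfp with the accession as filed and its product quenches rhodamine fluorescence; potency is the fitted concentration of half-maximal effect; 0% = enzyme reaction without inhibitor and -100% = no enzyme wells; top concentration of the series not given in the record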
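With Hepes-Na pH 7.6 buffer containing 10 mM MgCl2, Sfp (15 nM) modified BHQ-2-YbbR (12.5 uM) using rhodamine-CoA (5 uM). Two reads 30 minutes apart at 525/598 nm yielded each well's rate.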
TRPML1 agonist – human mucolipin-1 channel agonism. Q9GZU1. TRPML1-expressing cells, Ca2+ dye fluorescence, FDSS; host cell line not named in the record; reference of the full effect not given here. activation, % (no concentration beside the values). 0.12% of 410,000 active. AID 624414; in the data active = activation above about 50%; inconclusive = about 30% to 50%; inactive = below about 30%; note: 0% is about no effect; the text of the record puts the active cut at 80%
Target sequence (Q9GZU1 whole entry, looked up): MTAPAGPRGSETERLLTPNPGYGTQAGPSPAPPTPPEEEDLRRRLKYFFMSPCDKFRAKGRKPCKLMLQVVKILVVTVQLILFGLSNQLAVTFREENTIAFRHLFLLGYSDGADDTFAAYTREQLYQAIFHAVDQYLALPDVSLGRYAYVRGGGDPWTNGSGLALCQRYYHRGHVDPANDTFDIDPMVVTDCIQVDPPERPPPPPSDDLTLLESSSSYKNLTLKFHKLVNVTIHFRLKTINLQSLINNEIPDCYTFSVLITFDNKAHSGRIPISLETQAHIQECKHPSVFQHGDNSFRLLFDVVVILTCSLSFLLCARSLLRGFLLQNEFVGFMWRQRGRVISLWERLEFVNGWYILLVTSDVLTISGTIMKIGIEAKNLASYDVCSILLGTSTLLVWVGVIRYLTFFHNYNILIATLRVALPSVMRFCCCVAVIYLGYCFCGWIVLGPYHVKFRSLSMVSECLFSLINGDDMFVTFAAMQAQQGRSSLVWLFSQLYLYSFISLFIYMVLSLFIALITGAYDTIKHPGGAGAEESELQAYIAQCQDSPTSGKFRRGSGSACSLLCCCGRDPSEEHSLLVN
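TRPML1-DL cells, Tet-induced overnight (~16 h, 37 degrees C), loaded 45-90 min at room temperature with Ca8 no-wash calcium dye plus quencher. FDSS fluorescence: 10 s baseline, compound pin-transfer, 110 s agonist read, then EC80 54-4 (4uM final) and 110 s antagonist read.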
TRPV1 potentiator – human TRPV1 potentiation | AID 540277 | 0.02% of 320,000 active | potentiation, % at 8.33 µM | TRPV1-expressing cells, Fluo-8 calcium influx, capsaicin EC20 potentiation; host cell line not named in the record; control for the full effect not named in the record; active means potentiation above 80%; inconclusive means 30% to 80%; inactive means below 30%; note: 0% is about no effect
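TRPV1-expressing cells were cultured overnight at 35.5C and loaded with Fluo-8 calcium dye for 40 to 90 min at room temperature. After a 10 s baseline, compound was added and calcium influx was read kinetically for 3 min (ex 480/em 520 nm).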
ClpP mod – qHTS Assay for Activators of ClpP. ATP-dependent Clp protease proteolytic subunit (Bacillus subtilis (strain 168)), P80244. purified B. subtilis ClpP, FRET peptide cleavage, 20 min. Potency, µM (titrated, usually from 57.5 µM), for inactives: top-dose activity change, negative = active. 1.9% of 340,000 active; active = well fitted falling curve with a large enough effect; inconclusive = small, poorly fitted or top-dose-only effect; inactive = no such curve, though single readings can be large or run the other way; note: potency is the fitted concentration of half-maximal effect; the source files actives as falling curves though it sought activators and does not explain the sign; nearly all actives have a fitted effect of over 65% in size; many hits overshoot -100%
Target sequence (P80244 whole entry, looked up): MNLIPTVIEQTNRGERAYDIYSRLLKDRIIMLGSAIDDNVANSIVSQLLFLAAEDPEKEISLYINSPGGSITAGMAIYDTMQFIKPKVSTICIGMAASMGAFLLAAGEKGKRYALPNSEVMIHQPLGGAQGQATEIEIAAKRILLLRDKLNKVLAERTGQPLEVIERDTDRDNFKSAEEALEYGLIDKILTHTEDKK
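FRET quenching reversal measured ClpP activation: 10 microg/mL B. subtilis ClpP at pH 8 with the FRET-FV decapeptide, read at 430 nm after 320 nm excitation. The 20-min minus 0-min signal was scaled between DMSO/no-enzyme wells and ADEP (5.8 microM final).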
TRPML1 inh – inhibitors of human TRPML1 channel | Q9GZU1 | TRPML1-inducible cells, Ca2+ dye fluorescence, FDSS; hits give low values; inhibition of EC80 agonist-evoked calcium signal | activity change, negative = inhibition, % (test concentration not listed) | 0.02% of 390,000 active | AID 624415; in the data active means activity change below about -50%; inconclusive means about -30% to -50%; inactive means above about -30%;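 note: stimulus is agonist 54-4 at its EC80 concentration; % is set by controls: 0 for no effect and ±100 for the full control effect; compound concentration not given in the record; the text of the record puts the active cut at -80%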
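Tet-induced TRPML1-DL cells loaded with Ca8 no-wash calcium dye were read kinetically on FDSS. Compound addition was followed by EC80 agonist 54-4 (4 uM final); inhibition was read over 110 s.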
Active calls of the source: *; ? = inconclusive; · = not tested or not shown; & = joins results of further samples; [ ] = another dose, or the depositor's remark.

SMILES	PINK1 modulator	Menin-MLL FL inh	Sfp PPTase inh	TRPML1 agonist	TRPV1 potentiator	ClpP mod	TRPML1 inh
Cc1nnc(NC(=O)C2COc3ccccc3O2)s1 (configuration not stated)	0.6%	0.1	18%	0.5	5	0.7%	-10
O=C1CC(N2CCSCC2)C(=O)N1CCc1ccccc1 (configuration not stated)	2.2%	1.0	-9%	-0.2	-6	-0.8%	-14
CCOc1cc(/C=C2/NC(=S)NC2=O)ccc1OCc1ccc([N+](=O)[O-])cc1	5.1%	3.3	-19%	0.1	-12	2.2%	0
COc1ccccc1N(CC(=O)N(C)Cc1ccccc1)S(=O)(=O)c1cccs1	0.9%	·	·	1.8	-5	2.1%	10
Cn1c(Cc2ccccc2)n[nH]c1=S	0.1%	2.5	-9%	-0.7	10	-18%	-18
COc1ccc(NC(=O)c2nc(SCc3ccccc3F)ncc2Cl)cc1	3.7%&4.0%	·	·	0.2&-0.3	·	?	3
CCCCN1C(=O)C(CC(=O)NCCCN(C)C)CC(C(=O)N2CCOCC2)=C1C (configuration not stated)	0.1%	·	·	-0.2	·	0.5%	-7
Cc1ccc2[nH]c3c(c2c1)CN(C)CC3	0.3%	0.8	4%	0.2	-5	-3.0%	-10
CCS(=O)(=O)N1CCCC(C(=O)NCc2ccc(C)cc2)C1 (configuration not stated)	-2.0%	0.5	14%	0.1	-35	-2.5%	43
Cc1cc(=O)oc2c(C)c(OCC(=O)N3CCC(C(=O)O)CC3)ccc12	0.2%	-11	19%	·	1	4.3%	·
COc1ccc(C)cc1-n1nnc(-c2nc(-c3ccccc3Cl)no2)c1N	0.4%	·	·	2.3	·	-0.9%	36
COCCN(C(C)=O)c1nnc(-c2cnccn2)s1	-0.9%	-1.9	12%	-0.2	-3	?	23
Cc1cc(C)cc(N(CC(=O)Nc2cccc(C)n2)S(=O)(=O)c2c(C)noc2C)c1	0.6%	0.1	10%	2.7	-1	-3.7%	16
O=C1CC(c2ccccc2)Cc2[nH]c(=O)c(C(=O)O)cc21 (configuration not stated)	9.3%	·	·	-0.4	·	-2.2%	·
CCOC(=O)c1c(CN(C)C)n(-c2ccccc2)c2cc(Br)c(OC)cc12	?	1.9	-26%	1.0	-13	3.8%	1
COc1ccc(C(=O)OC2=C(C(=O)c3ccccc3)N(C)S(=O)(=O)c3ccccc32)cc1OC	-0.5%	·	·	-0.1	·	-3.9%	-12
CCOc1ccccc1CN1CCN(Cc2cccc3nonc23)CC1CCO (configuration not stated)	-0.8%	8.1	15%	-0.4	5	·	-1
O=C1c2cc(S(=O)(=O)NCCCO)ccc2-c2ccc(S(=O)(=O)NCCCO)cc21	2.5%	5.5	8%	-0.2	6	2.0%	12
CCOC(=O)C1=C(C)NC(=S)NC1c1ccc(-c2ccc(Cl)cc2)o1 (configuration not stated)	3.6%	19	14µM*	-0.8	26	-7.6%	56
CCc1ccc(C(=O)NNC(=O)C2CC(=O)N(c3ccc4c(c3)OCCO4)C2)cc1 (configuration not stated)	-0.5%	·	·	0.5	-2	-4.9%	0
CCCN(CCC)CCCNC(=O)c1cn(CCOC)c(=O)c2c1c1ccccc1n2C	29%[38.3 µM]	-0.6	-26%	-0.2	2	14µM*	-4
Cc1ccc(-n2ccc(=O)c(C(=O)Nc3ccc(S(=O)(=O)Nc4nccc(C)n4)cc3)n2)cc1	-0.4%	3.6	12%	-0.4	-5	0.3%	-10
O=C(CCn1cccc1)NCc1ccccc1	3.3%	2.6	5%	0.1	9	0.1%	6
Cc1csc(CNC(=O)C2CCC(=O)N(CCCc3ccccc3)C2)n1 (configuration not stated)	-0.2%	·	18%	0.4	-7	-2.9%	12
CC(=O)c1cc2c(cc1N/C(=N/S(=O)(=O)c1ccc(Cl)cc1)c1ccc(F)cc1)OCO2	6.6%	·	·	-0.1	·	-1.4%	-16
Next section
SMILES	PINK1 modulator	Menin-MLL FL inh	Sfp PPTase inh	TRPML1 agonist	TRPV1 potentiator	ClpP mod	TRPML1 inh
CC(=O)c1ccc(OCc2cc(C(=O)N(C)Cc3cc(C)no3)no2)cc1	-0.1%	·	21%	-1.3	-4	-0.9%	32
O=C(c1nn(Cc2ccccc2)c(=O)c2ccccc12)N1CCN(C/C=C/c2ccccc2)CC1	-0.8%	0.0	-6%	1.8	3	1.4%	-11
COc1ccc(OCc2cc(C(=O)N3CCCCCC3)no2)c(Cl)c1	9.0%	·	12%	2.2	-9	-3.0%	16
COc1ccc(-c2nn(-c3ccccc3)cc2C(=O)O)cc1OC	2.3%[38.3 µM]	-1.7	3%	0.0	-5	25µM*	8
O=C(CN1C(=O)NC(Cc2c[nH]c3ccccc23)C1=O)Nc1cccc(S(=O)(=O)N2CCCC2)c1 (configuration not stated)	-0.4%	-3.9	3%	-0.1	23	-0.5%	18
C[C@H](c1ccccc1)N1C[C@@H](COCc2ccccc2)Oc2cc(N3CC[C@@H](O)C3)ccc2S1(=O)=O	-0.7%	·	·	0.2	·	-23%	·
COc1cc(OC)cc(C(=O)NC(C(=O)O)C23CC4CC(CC(C4)C2)C3)c1 (configuration not stated)	1.9%	-2.5	2%	-0.8	4	·	-10
CC(C)CN1CC[C@@]2(CCCN(S(=O)(=O)c3ccccc3)C2)C1	1.0%	3.1	7%	·	·	·	·
COc1cccc(NC(=O)CN(C)C(=O)CCNC(=O)c2ccccc2OC)c1	2.4%	·	·	0.2	·	·	-15
CC1(C)CC(=O)C/C(=N/Nc2nc3ccccc3s2)C1	1.3%	6.2	1%	0.9	1	-2.8%	7
COc1ccc(C2=NOC(Cn3nc(-c4ccccc4)cc3C(=O)O)C2)cc1 (configuration not stated)	-0.8%	·	·	-0.5	24	-1.9%	6
CC(=O)N1c2ccccc2C(=O)C1N1CCN(c2cccc(C(F)(F)F)c2)CC1 (configuration not stated)	0.9%	·	·	1.6	·	-15%	1
CCOC(=O)C1=C(C)N=C2SC(C)C(=O)N2C1c1cccc(F)c1 (configuration not stated)	0.2%	1.6	16%	4.4	2	-4.0%	-14
COC(=O)Cn1c2ccccc2c2nc3ccccc3nc21	3.3%	3.2	17%	-0.5	3	1.8%	27
O=C(Nc1ccc(-c2nc3ccccc3o2)cc1)c1cccnc1	3.1%	-2.0	1%	0.2	4	-1.6%	18
Nc1nc(-n2cnnc2)nn1-c1ccccc1	0.9%[38.3 µM]	0.5	-2%	-0.3	0	0.5%	0
Cc1ccc(OCC(=O)N2N=C(c3ccc(Cl)cc3)CC2c2ccco2)c([N+](=O)[O-])n1 (configuration not stated)	-1.2%	7.9	?	0.9	-19	·	-3
O=C(COc1cc(O)c2c(=O)c3ccccc3oc2c1)OCc1ccccc1	2.6%	-2.1	16%	-0.1	-2	·	5
O=C(COc1ccccc1)Nc1cc(S(=O)(=O)N2CCOCC2)ccc1N1CCCC1	1.8%	·	·	0.5	-3	0.3%	-11
O=S(=O)(CCNCc1ccco1)NCc1ccccc1	-0.3%	·	·	-0.4	·	1.6%	-4
CCCCCC(=O)Nc1cc(S(=O)(=O)N2CCCCC2)ccc1N1CCOCC1	3.1%	·	7%	1.2	-17	0.7%	11
CCOc1cccc(C(=O)Nc2cc(C)ccc2NC(=O)c2ccco2)c1	0.3%	-2.8	2%	0.1	-19	-0.7%	0
Cc1nn(CC(=O)c2ccc(Cl)s2)c(C)c1[N+](=O)[O-]	-0.9%	?	0%	1.0	?	·	7
COCCN(C(=O)c1cc(S(=O)(=O)N2CCCCC2)ccc1Cl)c1c(N)n(CC(C)C)c(=O)[nH]c1=O	-3.2%	·	·	0.3	2	·	1
COc1ccc(Cl)cc1NC(=O)CC(C)=O	-0.1%	-9.4	15%	0.1	3	-1.2%	16

3 compounds already listed, sorted by the number in Sfp PPTase inh, rising:
SMILES | PINK1 modulator | Menin-MLL FL inh | Sfp PPTase inh | TRPML1 inh
O=C(c1nn(Cc2ccccc2)c(=O)c2ccccc12)N1CCN(C/C=C/c2ccccc2)CC1 | -0.8% | 0.0 | -6% | -11
COc1cc(OC)cc(C(=O)NC(C(=O)O)C23CC4CC(CC(C4)C2)C3)c1 (configuration not stated) | 1.9% | -2.5 | 2% | -10
CCCCCC(=O)Nc1cc(S(=O)(=O)N2CCCCC2)ccc1N1CCOCC1 | 3.1% | · | 7% | 11

The listing continues:
SMILES	PINK1 modulator	Menin-MLL FL inh	Sfp PPTase inh	TRPML1 agonist	TRPV1 potentiator	ClpP mod	TRPML1 inh
CCCc1ccc(-c2csc(NC(=O)C3=COCCO3)n2)cc1	4.5%	·	·	0.6	-17	-8.5%	-3
O=C(NCCNC(=O)c1ccco1)c1ccc(Cl)c(Cl)c1	0.4%	-7.8	10%	1.2	?	·	-12
COc1ccc(C2C(C(=O)c3ccco3)=C(O)C(=O)N2CC2CCCO2)c(OC)c1 (configuration not stated)	-0.9%	2.4	1%	0.7	8	·	14
Cc1ccc(Oc2ccc(S(=O)(=O)N3CCOCC3)cc2C(N)=O)c(-n2nc3ccccc3n2)c1	2.7%	2.1	-1%	-0.2	9	32µM*	2
CCOc1ccc(NC(=O)CN(C)C(=O)C2CC(=O)N(CCc3ccccc3)C2)cc1OCC (configuration not stated)	-3.9%	·	·	0.3	6	-2.2%	-9
NC(c1csc(Nc2cnccn2)n1)c1ccccc1Cl (configuration not stated)	0.5%	·	·	-0.5	·	-7.1%	·
O=C(CSc1nnc(-c2ccc3c(c2)OCO3)o1)Nc1ncc(C(F)(F)F)cc1Cl	-0.6%	10	-3%	-0.1	-3	-2.1%	0
COC(=O)Nc1ccc(S(=O)(=O)N(C)C)cc1	-0.5%[38.3 µM]	-0.2	11%	0.8	5	0.3%	20
CCCOc1ccc(C2C(C(=O)c3ccco3)=C(O)C(=O)N2CCCn2ccnc2)cc1 (configuration not stated)	0.5%	4.6	9%	0.1	5	-0.4%	12
COc1cc(C(=O)N2CCN(C)CC2)cc(OC)c1OC	2.0%	-3.4	11%	0.2	6	1.8%	-1
CCOC(=O)COc1ccc(S(=O)(=O)N2CCN(c3ccc(OC)cc3)CC2)cc1	1.0%	0.9	10%	0.4	-2	·	3
COc1cc(C(=O)Nc2ccc(F)cc2Cl)ccc1OCC(=O)N1CCOCC1	2.5%	·	·	0.7	4	-0.5%	18
Oc1ccc(N2CCN(C(c3ccc(Cl)cc3)c3nnnn3Cc3ccc(F)cc3)CC2)cc1 (configuration not stated)	-1.2%	·	·	0.1	·	-1.8%	·

Not a hit list; overall some 4.4% were active at least once.
